Vif-APOBEC3G blk = blocks the Vif interaction with human APOBEC3G; 410,000 tested, 0.076% active; Potency, µM (top dose mostly 46.1 µM), inactives show at the highest dose activity, negative = active, actives largely listed as inhibitors; Q9HC16; AID 602310; HeLa A3G-eYFP + Vif (tagged APOBEC3G with the HIV-1 protein that degrades it), YFP fluorescence, overnight;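 note: % is set by controls: 0 for no effect and ±100 for the full control effect; nearly all actives have a fitted effect of over 60% in size; hits raise eYFP signal because A3G escapes Vif-driven loss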
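HeLa cells stably expressing Vif and C-terminally eYFP-tagged A3G, seeded overnight at 37 deg C, then exposed to compound by pintool overnight at 37 deg C. Rise in yellow fluorescence (Ex 488/Em 500-530, Acumen) marks blocked Vif-driven A3G degradation.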
Vif-APOBEC3F blk = Vif-A3F binding inhibition. Potency, µM (top dose mostly 46.1 µM), without a hit: at the highest dose activity, negative = active. HeLa A3F-eYFP + Vif (tagged APOBEC3F with the HIV-1 protein that degrades it), YFP fluorescence increase. 390,000 tested, 0.2% active; note: % of control where 0% means no effect; nearly all actives have a fitted effect of over 65% in size
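HeLa cells stably expressing A3F-eYFP plus Vif, plated and incubated overnight at 37 deg C, then exposed to compounds overnight at 37 deg C. Blocked degradation read as raised yellow fluorescence (Ex 488/Em 500-530).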
IDH1 R132H inh = blocks human mutant IDH1 R132H enzyme; IDH1-R132H enzyme, NADPH consumption, diaphorase/resazurin fluorescence; Potency, µM (series often up to 76.6 µM), for inactives: top-dose activity change, negative = inhibition, usual class: inhibitors; 390,000 tested, 0.093% active; AID 602179; note: % is set by controls: 0 for no effect and ±100 for the full control effect; nearly all actives have a fitted effect of over 65% in size
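IDH1-R132H (0.5 ug/mL dispensed) in pH 7.5 Tris buffer was preincubated 30 min with compound, then given a substrate mix of 0.016 mM NADPH and 2 mM alpha-KG for 80 min at room temperature; remaining NADPH was read by diaphorase/resazurin fluorescence.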
RXFP1 agonist = agonists of human relaxin receptor RXFP1. HEK293T-RXFP1 cAMP TR-FRET, 30 min; response scale: percent of porcine relaxin response, buffer zero. 370,000 tested, 0.3% active. Potency, µM (titrated, usually from 57.5 µM), for inactives: top-dose activation, hits mostly activators; note: % is set by controls: 0 for no effect and ±100 for the full control effect; nearly all actives have a fitted effect of over 60% in size; many of its hits are not listed in these tables
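HEK293T cells stably expressing RXFP1 were pretreated with the PDE4 inhibitor Ro 20174, exposed to compounds for 30 min at 37C, lysed, and cAMP was read by TR-FRET. Data normalized to buffer (basal) and 29 nM porcine relaxin (100%).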
12-LOX inh = blocks human arachidonate 12S-lipoxygenase; P18054; purified 12hLO, xylenol orange hydroperoxide absorbance; Potency, µM (series often up to 108 µM), without a hit: top-dose activity change, negative = inhibition, hits mostly inhibitors; 580,000 tested, 1.1% active; AID 1671190; note: % is set by controls: 0 for no effect and ±100 for the full control effect
Target sequence (P18054 whole entry, looked up): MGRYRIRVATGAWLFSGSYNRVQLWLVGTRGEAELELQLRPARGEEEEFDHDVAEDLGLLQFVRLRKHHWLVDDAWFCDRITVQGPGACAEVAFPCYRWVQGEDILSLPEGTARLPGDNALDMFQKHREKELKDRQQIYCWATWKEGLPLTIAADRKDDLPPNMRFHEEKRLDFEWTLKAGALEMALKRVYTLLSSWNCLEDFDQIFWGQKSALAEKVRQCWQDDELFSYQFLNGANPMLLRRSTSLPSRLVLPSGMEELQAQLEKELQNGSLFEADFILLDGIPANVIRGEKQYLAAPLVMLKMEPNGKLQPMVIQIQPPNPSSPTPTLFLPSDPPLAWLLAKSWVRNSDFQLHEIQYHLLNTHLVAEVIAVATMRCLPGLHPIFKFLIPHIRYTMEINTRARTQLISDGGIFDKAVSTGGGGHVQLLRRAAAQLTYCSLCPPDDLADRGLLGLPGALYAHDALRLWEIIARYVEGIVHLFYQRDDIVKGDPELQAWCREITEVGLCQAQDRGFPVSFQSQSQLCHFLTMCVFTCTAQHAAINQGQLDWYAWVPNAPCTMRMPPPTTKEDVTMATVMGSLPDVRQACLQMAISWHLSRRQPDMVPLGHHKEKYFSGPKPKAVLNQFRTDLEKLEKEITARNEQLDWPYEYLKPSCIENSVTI
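Purified human 12hLO at 150 nM in 25 mM Hepes, 0.01% Triton X-100, pH 7.0, preincubated 15 min at room temperature with compound. Reaction started with 40 uM arachidonic acid, 30 min at room temperature. Hydroperoxide measured by Fe-xylenol orange, 573/405 nm absorbance ratio.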
* marks the source's active call; other numbers are inactive results; i = inactive; ? = inconclusive; · = no result given; & = joins results of further samples; [ ] = another dose, or the depositor's remark. Calls come from the whole dose curve; as a rule, active = well fitted curve in the direction sought with a large enough effect; inconclusive = small, poorly fitted or top-dose-only effect, or another doubt; inactive = no such curve, though single readings can be large; an effect the other way counts as inactive or inconclusive. Potency is the fitted concentration of half-maximal effect. Not all compounds are listed; the hit share may differ from the screen's.

Values run as follows: Vif-APOBEC3G blk, Vif-APOBEC3F blk, IDH1 R132H inh, 12-LOX inh, RXFP1 agonist
1) C[C@H]1[C@H](NC(=O)C(=NOC(C)(C)C(=O)O)c2csc(N)n2)C(=O)N1S(=O)(=O)O
→ -0.4%, 0.7%, -3.9%, ?, -0.1%
2) O=C(O)C1=NC(C(=O)O)CC(C=CN2c3cc(O)c(OC4OC(CO)C(O)C(O)C4O)cc3CC2C(=O)O)=C1 (stereo not drawn)
→ ·, ·, ·, ?, ·
3) Nc1ccn([C@@H]2CS[C@H](CO)O2)c(=O)n1
→ ·, ·, ·, -26.5%, 1.8%
4) Nc1nc2c(ncn2COCCO)c(=O)[nH]1
→ 0.9%&-1.4%, 3.1%, -1.7%, 5.1%, 4.5%
5) COc1c(N2C[C@@H]3CCCN[C@H]3C2)c(F)cc2c(=O)c(C(=O)O)cn(C3CC3)c12
→ ·, ·, ·, -19.3%[57.4 µM], ·
6) CCN(CC)CCNC(=O)c1ccc(N)cc1
→ -0.6%, 2.0%, 9.3%, 21.9%, 1.0%
7) CCN1CCN(C(=O)N[C@H](C(=O)N[C@@H]2C(=O)N3C(C(=O)O)=C(CSc4nnnn4C)CS[C@@H]23)c2ccc(O)cc2)C(=O)C1=O
→ ·, ·, ·, -23.1%[12.5 µM], ·
8) COc1ccc(C2Sc3ccccc3N(CCN(C)C)C(=O)[C@@H]2OC(C)=O)cc1 (stereo partly drawn)
→ ·, ·, ·, -0.7%&-6.5%, ·
9) COc1cc2c(cc1OC)C(C)=NC1(CCCCC1)C2
→ 0.1%, 13.3%, -4.8%, -14.2%, 10.6%
10) Cc1[nH]ccc2c1[nH]c1cc(=O)ccc12
→ 4.5%, 10.0%, 2.2%, i, 4.4%
11) Cc1nnc(SCC2=C(C(=O)O)N3C(=O)C(NC(=O)Cn4cnnn4)C3SC2)s1 (stereo not drawn)
→ 2.3%, 10.5%, 16.0%, -25.4%, 0.8%
12) NC1C2CN(c3nc4c(cc3F)c(=O)c(C(=O)O)cn4-c3ccc(F)cc3F)CC12 (stereo not drawn)
→ -19.0%, 5.2%, 2.1%, ·, 1.9%

Compound profiles, as listed above.
Entry for CCN1CCN(C(=O)N[C@H](C(=O)N[C@@H]2C(=O)N3C(C(=O)O)=C(CSc4nnnn4C)CS[C@@H]23)c2ccc(O)cc2)C(=O)C1=O → Vif-APOBEC3G blk = ·; Vif-APOBEC3F blk = ·; IDH1 R132H inh = ·; 12-LOX inh = -23.1%[12.5 µM]; RXFP1 agonist = ·
Entry for Nc1ccn([C@@H]2CS[C@H](CO)O2)c(=O)n1 → Vif-APOBEC3G blk = ·; Vif-APOBEC3F blk = ·; IDH1 R132H inh = ·; 12-LOX inh = -26.5%; RXFP1 agonist = 1.8%
Entry for Nc1nc2c(ncn2COCCO)c(=O)[nH]1 → Vif-APOBEC3G blk = 0.9%&-1.4%; Vif-APOBEC3F blk = 3.1%; IDH1 R132H inh = -1.7%; 12-LOX inh = 5.1%; RXFP1 agonist = 4.5%

Exported in transposed form: part of the list above
[6] CCN(CC)CCNC(=O)c1ccc(N)cc1
[1] C[C@H]1[C@H](NC(=O)C(=NOC(C)(C)C(=O)O)c2csc(N)n2)C(=O)N1S(=O)(=O)O
[11] Cc1nnc(SCC2=C(C(=O)O)N3C(=O)C(NC(=O)Cn4cnnn4)C3SC2)s1 (stereo not drawn)
compound no.	6	1	11
Vif-APOBEC3G blk	-0.6%	-0.4%	2.3%
Vif-APOBEC3F blk	2.0%	0.7%	10.5%
IDH1 R132H inh	9.3%	-3.9%	16.0%
12-LOX inh	21.9%	?	-25.4%
RXFP1 agonist	1.0%	-0.1%	0.8%
